KCNQ2 inh: KCNQ2 potassium channel inhibitors, primary screen, cell-based, CHO-K1, FluxOR thallium flux, B-score (AID 2156) | Potassium voltage-gated channel subfamily KQT member 2 (Rattus norvegicus), O88943 | 20 min; stronger effect = lower value; only compounds with negative scores are shown here; some inactives read as strong as hits | B-score at 10 µM | 1.1% of 310,000 active;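 active = fluorescence ratio B-score at most minus 3 library SDs, with starting brightness B-score within 2 library SDs, cut at about -5.5 in these data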
Target sequence (O88943 whole entry, looked up): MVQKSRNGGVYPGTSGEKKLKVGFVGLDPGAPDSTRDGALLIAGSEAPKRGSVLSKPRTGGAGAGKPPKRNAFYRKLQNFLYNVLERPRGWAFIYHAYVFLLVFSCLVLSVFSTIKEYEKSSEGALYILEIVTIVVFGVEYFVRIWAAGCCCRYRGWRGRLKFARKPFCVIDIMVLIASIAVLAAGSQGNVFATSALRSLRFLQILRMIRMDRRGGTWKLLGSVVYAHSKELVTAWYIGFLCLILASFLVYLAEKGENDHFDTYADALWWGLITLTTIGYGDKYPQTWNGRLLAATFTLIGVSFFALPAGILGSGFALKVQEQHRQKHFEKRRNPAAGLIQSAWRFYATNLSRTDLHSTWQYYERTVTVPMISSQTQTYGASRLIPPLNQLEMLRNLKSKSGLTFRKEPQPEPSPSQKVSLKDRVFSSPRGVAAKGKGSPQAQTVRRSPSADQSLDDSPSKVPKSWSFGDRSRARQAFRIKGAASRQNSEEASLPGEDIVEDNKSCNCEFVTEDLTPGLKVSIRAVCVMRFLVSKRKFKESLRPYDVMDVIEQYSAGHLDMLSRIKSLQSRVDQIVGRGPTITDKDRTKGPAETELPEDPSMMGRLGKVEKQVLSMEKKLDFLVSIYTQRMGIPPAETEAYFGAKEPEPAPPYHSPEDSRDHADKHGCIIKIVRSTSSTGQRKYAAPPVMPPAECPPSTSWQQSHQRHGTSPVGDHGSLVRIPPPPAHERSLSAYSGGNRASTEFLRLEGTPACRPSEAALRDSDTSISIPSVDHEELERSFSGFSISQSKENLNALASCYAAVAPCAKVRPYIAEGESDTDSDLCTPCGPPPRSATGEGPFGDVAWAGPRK
KCNQ2 inh baseline: recorded beside KCNQ2 inh, whose call it bears; B-score; measured here: initial fluorescence intensity artifact check;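 brightness before thallium and not channel activity; 0 = typical well and far values either way flag optical interference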
Active calls of the source: *; i = inactive.

canonical_smiles	KCNQ2 inh baseline	KCNQ2 inh
N#CCCN(CCC#N)S(=O)(=O)c1ccc(C(=O)Nc2nc(-c3ccccc3)c(C(=O)c3ccccc3)s2)cc1	0.16	i
COc1ccc(C(C(=O)NCc2ccc(F)cc2)N(Cc2cccnc2)C(=O)c2snc(C(N)=O)c2N)cc1 (stereo not drawn)	1.2	i
COc1ccc(-c2nnc(SCC(=O)Nc3sc4c(c3C#N)CCCC4)n2-c2ccccc2)cc1	-0.01	i
CCN(c1ccccc1)S(=O)(=O)c1ccc(C(=O)Nc2nnc(COC)o2)cc1	1.3	i
CC(C(=O)NCc1ccccn1)N1C(=O)c2ccccc2C1=O (stereo not drawn)	1.3	i
O=C(Cc1c(F)c(F)c(F)c(F)c1F)OC12CC3CC(C1)C(=O)C(C3)C2	1.5	i
CN(Cc1ccccc1)c1nc(N)c([N+](=O)[O-])c(Nc2cccc(F)c2)n1	-0.14	i
Cc1sc2nc(CN(Cc3ccccc3)C(=O)NC3CCCCC3)[nH]c(=O)c2c1C	0.13	i
Cc1cccc(NC(=O)COC(=O)CNC(=O)C2CCCCC2)c1	0.7	i
Cc1cc(OCCN2CCOCC2)ccc1C(C)C	0.16	i
CCC1CCCCN1C(=O)CN1C(=O)c2ccccc2S1(=O)=O (stereo not drawn)	-0.19	i
COc1ccc(S(=O)(=O)c2c(N)n(Cc3ccco3)c3nc4ccccc4nc23)cc1	3.5	i
NCCCn1c(C(=O)c2cc(Cl)c(N)c(Cl)c2)c2ccc(C(F)(F)F)cc2[n+]1[O-]	-0.45	i
CCOC(=O)c1ccccc1OCc1cc(/C=N/n2cnnc2)ccc1OC	3.4	i
COc1cccc(N2CCc3c(C)nc4ccc(Cl)cc4c32)c1	-0.76	i
N/C(=N\OC(=O)CC1CCCCC1)c1cccnc1	-0.08	i
CC(=O)Nc1cccc(NS(=O)(=O)c2ccccc2[N+](=O)[O-])c1	1.6	i
COc1cccc(/C=N/NC(=O)CNC(=O)C2COc3ccccc3O2)c1O (stereo not drawn)	0.09	i
CCN(C(=O)CSc1nnnn1-c1ccccc1)C1CCS(=O)(=O)C1 (stereo not drawn)	1.3	i
C/C(=N\OC(=O)Nc1ccccc1)c1ccc(C)cc1	0.3	i
O=C(Nc1cccc2cccnc12)c1ccc(Cl)cc1	0.96	i
NS(=O)(=O)c1ccc(NC(=O)CSc2nnc(-c3ccc(O)cc3)o2)cc1	-1.1	i
COc1cc(C2CC(C(F)(F)F)n3ncc(C(=O)O)c3N2)cc(OC)c1OC (stereo not drawn)	-0.58	i
CCn1c(CN2CCN(c3ccc(OC)cc3)CC2)nc2cc(S(=O)(=O)N(C)C)ccc21	-1.1	i
Cc1ccc(CN2CCCC(CO)(Cc3ccccc3C)C2)s1 (stereo not drawn)	0.52	i
CCCN1C(=S)SC(C)(C)C1/[N+]([O-])=C/c1cccnc1 (stereo not drawn)	-0.63	i
Nn1cnc2c([nH]c3ccccc32)c1=O	0.11	i
CCOc1ccc(OC(=O)NC(c2ccccc2)C(Cl)(Cl)Cl)cc1 (stereo not drawn)	0.55	i
CCOC(=O)/C(=C\c1ccccc1)NC(=O)c1ccccc1	-0.01	i
CC(=O)N1CCN(c2ccc(S(=O)(=O)N3CCCCC3)cn2)CC1	-1.9	i
Cc1ccc(C(=O)n2nnc3ccccc32)cc1	-1.3	i
Cc1ccc(C)c(S(=O)(=O)Nc2ccc(C(=O)N3CCC3)cc2)c1	-0.11	i
Cc1c(C(=O)N2CCCCC2)sc(NC(=O)c2ccco2)c1C#N	0.14	i
CCCCn1c(N)c(N(CCC(C)C)C(=O)c2cc(S(=O)(=O)N3CCOCC3)ccc2F)c(=O)[nH]c1=O	-0.83	i
COc1cc(/C=C/C(=O)NNc2c(F)c(F)cc(F)c2F)ccc1OC(F)F	0.13	i
O=C(COC(=O)c1ccccc1SCC(=O)N1CCCC1)Nc1ccccc1OC(F)F	-1.4	i
CN(C)S(=O)(=O)c1ccc(C(=O)N2CCC(c3nc4ccccc4o3)CC2)cc1	0.76	i
COc1ccc(CC(=O)Nc2cccc(-c3nnc(-c4cccc(C)c4)o3)c2)cc1OC	1.7*	-7*
CCOC(=O)C1CCN(S(=O)(=O)c2cn(C)c(C)n2)CC1	-1.2	i
CC(NC(=O)c1ccccc1Br)c1ccc2c(c1)CCCC2 (stereo not drawn)	-0.02	i
CCCCOc1ccc(N2CC(C(=O)NCc3ccco3)CC2=O)cc1 (stereo not drawn)	0.06	i
O=c1cc2c(nn1Cc1ccc(F)cc1)-c1ccccc1CC2	-1	i
CCOc1cc(CNCCN2CCOCC2)ccc1OCc1ccccc1Cl	0.14	i
CC(=O)Nc1ccc(S(=O)(=O)NCCN2CCNC2=O)cc1Cl	2.7	i
Cn1c(SCC(=O)c2ccc3c(c2)Cc2ccccc2-3)nnc1-c1ccccc1	0.32	i
COc1ccccc1OC(C)C(=O)O (stereo not drawn)	1.1	i
Cc1ccc(S(=O)(=O)N2CCC(C(=O)NC3CC3)CC2)cc1	-0.54	i
COC(=O)c1c(-c2cc(C)ccc2C)csc1NC(=O)C1CC=CCC1C(=O)O (stereo not drawn)	0.59	i
N#Cc1cc2cc3ccccc3nc2n2c(=O)c3ccccc3nc12	-0.55	i
COCCNC(=S)N(Cc1cccnc1)Cc1ccc(OC)c(OC)c1	-1.1	i

Among those listed so far, three have a COOH group:
canonical_smiles	KCNQ2 inh baseline	KCNQ2 inh
COc1cc(C2CC(C(F)(F)F)n3ncc(C(=O)O)c3N2)cc(OC)c1OC (stereo not drawn)	-0.58	i
COc1ccccc1OC(C)C(=O)O (stereo not drawn)	1.1	i
COC(=O)c1c(-c2cc(C)ccc2C)csc1NC(=O)C1CC=CCC1C(=O)O (stereo not drawn)	0.59	i

(cont.)
canonical_smiles	KCNQ2 inh baseline	KCNQ2 inh
Cc1c(C(=O)NC2=NCCS2)oc2ccccc12	-0.21	i
Cc1ccc(Cn2c(Sc3nccc(C)n3)nc3c2c(=O)[nH]c(=O)n3C)cc1	-0.06	i
Cc1cc(C)cc(NC(=O)C2CCCN2C(=O)Oc2ccccc2)c1 (stereo not drawn)	-1.1	i
COc1cc(/C=C/C(=O)O)cc(S(=O)(=O)Nc2ccc3nc(C)sc3c2)c1OC	-0.48	i
CC(C)C(NC(=O)c1cccc(S(=O)(=O)N2CCOCC2)c1)C(=O)NCCc1ccccn1 (stereo not drawn)	-0.02	i
Cc1ccc(F)cc1NC(=O)CSCc1nc2sc(C)c(C)c2c(=O)[nH]1	1.8	i
O=C(c1ccc(N2CCCC2)c([N+](=O)[O-])c1)N1CCc2ccccc2C1	-1.1	i
CCC(C)NC(=O)c1c(C)cc(=O)oc1C (stereo not drawn)	-0.32	i
Cc1[nH]n(-c2ccccc2)c(=O)c1/C=N/Nc1nncc(-c2ccccc2)n1	-1.6	i
Cc1ccc(OCC(O)CN2CCN(c3ccc(C)cc3)CC2)cc1 (stereo not drawn)	3.6	i
O=C(C1=C[C@H](c2csc3ccccc23)C[C@H](OCc2ccc(CO)cc2)O1)N1CCCCCCC1	-0.02*	-5.6*
Cc1ccc(-n2nc3c(c2NC(=O)c2ccco2)CS(=O)(=O)C3)cc1C	0.36	i
Cc1ccc(-n2cc(CN3CCN(C(=O)c4ncn[nH]4)CC3)c(-c3ccc(F)cc3)n2)cc1	1.3	i
COc1ccc(CNC(=O)COC(=O)CCc2nc3ccccc3c(=O)[nH]2)cc1	-1.2	i
COc1ccc(/C=C2\CCCC3C2=NN(C(=O)CSc2ncn[nH]2)C3c2ccc(OC)cc2)cc1 (stereo not drawn)	0.6	i
O=C(CSc1nnc2n1CCCN2C(=S)Nc1ccc(Cl)cc1)c1ccccc1	-2.2	i
Cc1cccc(OCCC(=O)OC(C)C(=O)Nc2ccc(Cl)cn2)c1 (stereo not drawn)	0.28	i
Cc1ccc(NC(=O)CCN2C(=O)C3C4CCC(C4)C3C2=O)cc1Cl (stereo not drawn)	-0.63	i
COc1ccccc1Oc1ccc(Oc2ccccc2OC)cc1	-1.7	i
Cc1cc(C)c(Cn2c(=O)n(CCCC(=O)NCc3ccco3)c(=O)c3ccccc32)c(C)c1	-1.3	i
O=C(Cc1c[nH]c2ccccc12)N1CCc2ccccc21	-1.8	i
CCN1C(=O)[C@H]2[C@@H](c3ccc(-c4ccc5c(c4)OCO5)c(OC)c3)N[C@@](CC(C)C)(C(=O)OC)[C@H]2C1=O	-0.23	i
COc1ccc(OC)c(S(=O)(=O)Nc2cccc3ccccc23)c1	2.3	i
OCCNc1nc2ccc(Cl)cc2[nH]1	-0.3	i
CN1C2C=C3C(C#N)=C(N)C(C#N)(C#N)[C@@H](c4ccsc4)[C@@H]3C1CC2 (stereo partly drawn)	-0.55	i
Cc1onc(-c2ccccc2)c1C(=O)N1CCN(S(=O)(=O)c2ccc(OC(F)(F)F)cc2)CC1	-1.8	i
Cc1ccc2c(C)[nH]c(=O)cc2c1	2.4	i
O=C(CC(=O)N/N=C/c1ccc(Cl)cc1Cl)NCc1ccccc1	-0.22	i
O=C(CCc1ccccc1)NNC(=O)Nc1ccccc1	-3	i
CC(C)OC1(c2ccccc2)OC(=O)c2ccccc21 (stereo not drawn)	-0.9	i
CNC(=O)Nc1ccc2snnc2c1	-0.02	i
COc1cccc(NC(=S)Nc2cccnc2)c1	0.47	i
Cc1cccc(N2CCN(C(=O)C(Cc3ccccc3)n3cccc3)CC2)c1C (stereo not drawn)	0.1*	-13*
CCn1c2ccccc2c2nnc(SCCN3CCOCC3)nc21	-0.61	i
COc1c(N2CCN[C@H](C)C2)c(F)cc2c(=O)c(C(=O)O)cn(C3CC3)c12	-1.1	i
CN(CC(=O)NCc1ccc(F)cc1)Cc1cccc(Cl)c1	2.1	i
CCc1nc2ccccc2c(C(=O)OCC(=O)Nc2cccc(S(=O)(=O)NC3=NCCCCC3)c2)c1C	0.14	i
Cc1ccc(S(=O)(=O)N2CCCCC2C(=O)Nc2nncs2)cc1 (stereo not drawn)	1.1	i
Cc1nc(-c2ccccc2)sc1C(=O)Nc1ccc(S(N)(=O)=O)cc1	1.3	i
Cc1ccc(S(=O)(=O)N[C@H](C(=O)N2CCC(C(=O)N[C@@H](CCC(N)=O)C(=O)O)CC2)C(C)C)cc1	-1.3	i
Cc1cc(N/C=C/C(=O)c2cccc3ccccc23)no1	-0.47	i
Cn1cc([N+](=O)[O-])c(C(=O)Nc2ccc3c(c2)OCCO3)n1	0.5	i
Cc1ccc(OCC(=O)Nc2cccc(S(=O)(=O)N3CCCCCC3)c2)c([N+](=O)[O-])n1	-0.04	i
C=C(C)C(=O)OC1(C(F)(F)F)Oc2cc(C)ccc2NC1=O (stereo not drawn)	1.4	i
O=C(NCc1ccccc1)C(c1ccc(O)cc1)N(C(=O)Cn1nnc(-c2cccs2)n1)c1ccc2c(c1)OCCO2 (stereo not drawn)	-1.3	i
CCOC(=O)/C=C(\C)Sc1cc(=O)oc2ccccc12	0.75	i
O=C(COc1ccccc1)NCC(c1ccco1)N1CCN(c2ccccc2)CC1 (stereo not drawn)	0.01	i
CNC(=O)NC(=S)NC(=O)c1cccc(Cl)c1	0.47	i
COc1cc2c(C(=O)N3CCN(C4CCCCC4)CC3)cn(CC(C)C)c(=O)c2cc1OC	-0.03	i
Cc1cc(C)nc(SCCC(=O)N(C)C)n1	-0.27	i

Next part:
canonical_smiles	KCNQ2 inh baseline	KCNQ2 inh
Cc1cc2nccc(-c3ccc(Cl)c([N+](=O)[O-])c3)n2n1	-1.5	i
COc1cccc(CN2C(=O)[C@H]3Cc4c([nH]c5ccccc45)C(C)(C)N3C2=O)c1	0.02	i
COc1ccc(N2CCN(C(=O)c3cc(-c4ccc(F)cc4)[nH]c3C)CC2)cc1	0.45	i
O=C(NC(=S)Nc1ccccc1Br)c1ccc2c(c1)OCO2	-0.22	i
CC(C)C[C@H](NC(=O)c1[nH]cnc1C(=O)N[C@@H](C)C(=O)OC(C)(C)C)C(=O)OCc1ccccc1	-0.74	i
Cc1ccc(Cl)cc1N1CCN(C(=O)C2CCN(S(=O)(=O)c3c(C)nn(C)c3C)CC2)CC1	-0.81	i
CCC1(c2ccccc2)NC(=O)N(CC(=O)NNC(=O)c2ccoc2C)C1=O (stereo not drawn)	0.27	i
COCCNC(=O)CSc1nc2scc(-c3ccccc3)c2c(=O)[nH]1	-0.95	i
CN(Cc1cc(=O)n2ccsc2n1)c1ccccc1	0.57	i
CCn1nc(C(=O)NCCc2ccc(S(N)(=O)=O)cc2)c2ccccc2c1=O	-1.2	i
COC(=O)c1cc(N2C(=O)C3C(C2=O)C2(C)C=CC3(C)O2)ccc1Cl (stereo not drawn)	0.01	i
COc1cc(OC)c(C(=O)NCCCn2ccnc2)cc1OC	0.49	i
O=Cc1c(N2CCCCC2)nc2ccccn2c1=O	-1.2	i
O=C(COC(=O)c1ccc2c(c1)OCO2)NCc1ccc2c(c1)OCO2	-2.5	i

Complete entries, looked up by structure.
COc1ccc(N2CCN(C(=O)c3cc(-c4ccc(F)cc4)[nH]c3C)CC2)cc1 reads KCNQ2 inh baseline = 0.45; KCNQ2 inh = i
COCCNC(=O)CSc1nc2scc(-c3ccccc3)c2c(=O)[nH]1 reads KCNQ2 inh baseline = -0.95; KCNQ2 inh = i
Cc1cc2nccc(-c3ccc(Cl)c([N+](=O)[O-])c3)n2n1 reads KCNQ2 inh baseline = -1.5; KCNQ2 inh = i

This is a subset. The share of hits here may be higher or lower than overall.
